NOMO-1 viab: NOMO-1 AML cell viability reduction, primary screen, STK33 inhibitor project, CellTiter-Glo luminescence; NOMO-1 AML viability, 72 h; inhibition, % (concentration not given with the values); hit rate 7.5% among 37,000; AID 2330, 2010;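 active means most replicates above 80%; inconclusive means exactly half above 80%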;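 further: wells of about 30 µL received 25 nL stock; 0% = median of vehicle wells and 100% = reference inhibitor level; the first replicate is given; inactives centre near 10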
* marks the source's active call; other numbers are inactive results; ? = inconclusive. These rows are one share of the data, so the mix of outcomes need not match the whole.

SMILES | NOMO-1 viab
COC(=O)c1ccccc1NC(=S)NC(=O)COc1ccc(C)cc1 | -1
CC(=O)Oc1ccc2occ(C(=O)c3ccc(Br)s3)c2c1 | 41
C[C@@H]1CCCCO[C@H](CN(C)S(=O)(=O)c2ccc(F)cc2)[C@@H](C)CN([C@H](C)CO)C(=O)c2cc(NC(=O)Nc3ccc(C(F)(F)F)cc3)ccc2O1 | 98*
CCC(=O)N(Cc1cc2ccccc2[nH]c1=O)c1cccc(C)c1 | -7
C[C@@H]1CCCCO[C@H](CN(C)C(=O)Cc2ccccc2)[C@@H](C)CN([C@H](C)CO)C(=O)c2cc(NS(=O)(=O)c3ccc(F)cc3)ccc2O1 | 12
COc1ccc(-c2noc(CSc3nc4sc(C)c(C)c4c(=O)n3-c3ccccc3)n2)cc1OC | 12
CC(C)NC(=O)Nc1ccc2c(c1)C(=O)N([C@H](C)CO)C[C@H](C)[C@@H](CN(C)Cc1ccc(C(F)(F)F)cc1)OCCCC[C@@H](C)O2 | 31
C[C@H](CO)N1C[C@H](C)[C@@H](CN(C)C(=O)Nc2ccc(F)cc2)Oc2c(NC(=O)Nc3ccccc3)cccc2C1=O | 26
C[C@@H]1CN([C@H](C)CO)C(=O)c2cccc(NC(=O)Nc3ccccc3)c2O[C@H]1CN(C)C(=O)Nc1ccc(F)cc1 | -3
CC1OC(Oc2cc(O)c3c(=O)cc(-c4ccc(O)cc4)oc3c2C2OC(CO)C(O)C(O)C2O)C(O)C(O)C1O (centres undefined) | 1
COc1ccc(CN(C)C[C@H]2Oc3c(NC(=O)c4cnccn4)cccc3C(=O)N([C@H](C)CO)C[C@@H]2C)cc1 | 6
CC(C)NC(=O)Nc1ccc2c(c1)CC(=O)N([C@@H](C)CO)C[C@H](C)[C@H](CN(C)C(=O)Nc1ccc3c(c1)OCO3)O2 | -17
CN1C(=O)C(O)(CC(=O)c2ccco2)c2cc([N+](=O)[O-])ccc21 (centres undefined) | 36
O=C(CCCN1C(=O)c2ccccc2C1=O)Nc1cccc2c1CCCC2 | 13
COC(=O)C1=NN(C(C)(C)CC(C)=O)C2C(=O)N(C3CCCCC3)C(=O)C12 (centres undefined) | -18
COc1ccc(NC(=O)Nc2cccc3c2O[C@H](CN(C)S(=O)(=O)c2ccc(C)cc2)[C@@H](C)CN([C@@H](C)CO)C3=O)cc1 | 45
COc1ccc(NC(=O)Nc2cccc3c2O[C@@H](CN(C)C(=O)NC(C)C)[C@H](C)CN([C@@H](C)CO)C3=O)cc1 | 11
C[C@H]1CN([C@@H](C)CO)C(=O)c2cccc(NC(=O)c3ccncc3)c2O[C@@H]1CN(C)Cc1ccc(-c2ccccc2)cc1 | 23
C[C@H](CO)N1C[C@H](C)[C@H](CN(C)S(=O)(=O)c2cn(C)cn2)Oc2ccc(NC(=O)Nc3ccc4c(c3)OCO4)cc2C1=O | -1
C[C@H]1CN([C@@H](C)CO)C(=O)c2cccc(NC(=O)Nc3ccccc3)c2O[C@@H]1CN(C)Cc1ccccc1 | 36
Nc1ccc(C(=O)Nc2ccc(O)c(-c3nc4ccccc4o3)c2)cc1 | ?
CCCCC/C=C\C/C=C\C/C=C\C/C=C\CCCC(=O)O | -1
COc1cc(NC(=O)COc2cccc(C)c2C)ccc1NC(=O)c1ccccc1Cl | 26
O=C(CN(C1CCCCC1)S(=O)(=O)c1ccc(Cl)cc1)Nc1ccc(F)cc1F | 14
COc1ccc(NC(=O)CN2CCOCC2)c([N+](=O)[O-])c1 | 2
C[C@@H]1CCCCO[C@H](CN(C)CC2CC2)[C@@H](C)CN([C@H](C)CO)C(=O)c2cc(NC(=O)CCC(F)(F)F)ccc2O1 | 0
COc1cc2oc(=O)ccc2cc1CC(O)C(C)(C)O (centres undefined) | -9
Cc1ccnc(NC(c2ccc([N+](=O)[O-])cc2)c2ccc3ccc(C)nc3c2O)c1 (centres undefined) | 118*
CCOC(=O)c1cnc2c(C(=O)OC)cccc2c1NCc1ccco1 | 15
C[C@@H]1CN([C@@H](C)CO)C(=O)c2cccc(NC(=O)C3CCCCC3)c2O[C@@H]1CN(C)CC1CC1 | 31
Cc1noc(C)c1S(=O)(=O)Nc1ccc2c(c1)CC(=O)N([C@@H](C)CO)C[C@H](C)[C@H](CN(C)CC1CCCCC1)O2 | 15
C[C@H](CO)N1C[C@H](C)[C@@H](CN(C)S(C)(=O)=O)Oc2c(NC(=O)c3ccc(-c4nccs4)cc3)cccc2C1=O | 4
CC(=O)Nc1cccc(Oc2ccc3c(c2)C(=O)N(c2ccc(Oc4ccc(C)c(C)c4)cc2)C3=O)c1 | 46
C[C@H](CO)N1C[C@H](C)[C@@H](CN(C)Cc2ccc(Oc3ccccc3)cc2)Oc2ccc(NS(=O)(=O)c3ccc(F)cc3)cc2C1=O | 58
C[C@@H]1CN([C@H](C)CO)C(=O)Cc2cc(NC(=O)CCCN(C)C)ccc2O[C@@H]1CN(C)CC1CCCCC1 | 1
Cc1c(Cl)cccc1N(CC(=O)Nc1ccc(I)cc1)S(C)(=O)=O | 20

Quoted at random: 6 entries already listed
SMILES | NOMO-1 viab
Cc1noc(C)c1S(=O)(=O)Nc1ccc2c(c1)CC(=O)N([C@@H](C)CO)C[C@H](C)[C@H](CN(C)CC1CCCCC1)O2 | 15
CC(=O)Nc1cccc(Oc2ccc3c(c2)C(=O)N(c2ccc(Oc4ccc(C)c(C)c4)cc2)C3=O)c1 | 46
C[C@@H]1CN([C@@H](C)CO)C(=O)c2cccc(NC(=O)C3CCCCC3)c2O[C@@H]1CN(C)CC1CC1 | 31
Cc1c(Cl)cccc1N(CC(=O)Nc1ccc(I)cc1)S(C)(=O)=O | 20
COc1cc2oc(=O)ccc2cc1CC(O)C(C)(C)O (centres undefined) | -9
CCOC(=O)c1cnc2c(C(=O)OC)cccc2c1NCc1ccco1 | 15

Continuation:
SMILES | NOMO-1 viab
C[C@@H]1CCCCO[C@@H](CN(C)Cc2ccc(C(=O)Nc3ccccc3N)cc2)[C@@H](C)CN([C@H](C)CO)C(=O)c2cc(NC(=O)Nc3ccc(F)cc3)ccc2O1 | 111*
C[C@@H]1CN([C@H](C)CO)C(=O)c2cc(N(C)C)ccc2O[C@@H]1CN(C)C(=O)Nc1ccc(F)cc1 | 13
CN(CC(=O)Nc1ccc(Oc2ccccc2)cc1)S(=O)(=O)c1ccc(F)cc1 | 16
CNC[C@H]1Oc2ccc(NS(=O)(=O)c3ccc(F)cc3)cc2CC(=O)N([C@@H](C)CO)C[C@H]1C | 37
CCCCC/C=C\C/C=C\C(O)CCCCCCC(=O)O (centres undefined) | 33
COc1ccc(S(=O)(=O)Nc2cccc3c2O[C@@H](CN(C)Cc2ccc(-c4ccccc4)cc2)[C@@H](C)CN([C@H](C)CO)C3=O)cc1 | 19
C[C@@H]1CN([C@H](C)CO)C(=O)Cc2cc(NS(=O)(=O)c3ccc(F)cc3)ccc2O[C@@H]1CN(C)Cc1ccc(-c2ccccc2)cc1 | ?
C[C@@H]1CCCCO[C@H](CN(C)C(=O)Nc2ccc(C(F)(F)F)cc2)[C@@H](C)CN([C@H](C)CO)C(=O)c2cc(NS(=O)(=O)c3cccs3)ccc2O1 | 52
CN(C)c1ccc(NC(=O)CSc2nnc(-c3cnccn3)n2C)cc1 | -26
C[C@H](CO)N1C[C@H](C)[C@H](CN(C)C(=O)Nc2ccccc2)Oc2c(NS(C)(=O)=O)cccc2C1=O | -4
C[C@@H]1CN([C@H](C)CO)C(=O)c2cc(NC(=O)c3ccncc3)ccc2O[C@H]1CN(C)S(=O)(=O)c1ccc(F)cc1 | -10
C[C@H]1CN([C@@H](C)CO)C(=O)c2cccc(NS(=O)(=O)c3ccc(F)cc3)c2O[C@@H]1CN(C)Cc1ccncc1 | -1
CC(C)NC(=O)Nc1ccc2c(c1)CC(=O)N([C@H](C)CO)C[C@@H](C)[C@H](CN(C)C(=O)NC1CCCCC1)O2 | 11
C[C@@H]1CN([C@@H](C)CO)C(=O)c2cc(NS(=O)(=O)c3ccc(F)cc3)ccc2O[C@@H]1CN(C)C(=O)Nc1ccc2c(c1)OCO2 | -6
O=C(CCn1cnc2ccccc2c1=O)Nc1ccc2c(c1)OCCO2 | 29
Cc1cccc(C(=O)NN(c2ccccc2)c2ccccc2)c1 | 59
Cc1noc(C)c1S(=O)(=O)Nc1cccc2c1O[C@@H](CN(C)CC1CCCCC1)[C@@H](C)CN([C@H](C)CO)C2=O | -4
CNC[C@@H]1Oc2c(NS(=O)(=O)c3cccs3)cccc2C(=O)N([C@@H](C)CO)C[C@@H]1C | -28
C[C@H](CO)N1C[C@H](C)[C@H](CN(C)S(=O)(=O)c2ccc(Cl)cc2)Oc2ccc(NC(=O)Cn3cnnn3)cc2CC1=O | 42
CC1CCc2c(sc(NC(=O)c3nc4ncccn4n3)c2C(N)=O)C1 (centres undefined) | -13
C[C@H]1CN([C@@H](C)CO)C(=O)c2cccc(NC(=O)CCCCCC(=O)Nc3ccccc3N)c2O[C@H]1CN(C)C(=O)Nc1ccc2c(c1)OCO2 | 19
Cc1ccc(Cl)cc1NC(=O)CCCN1C(=O)c2ccccc2C1=O | -6
COc1ccccc1NC(=O)CN(c1ccc(F)cc1)S(C)(=O)=O | 10
Cc1cc(C)c(C2C(C#N)=C(N)Oc3n[nH]c(C)c32)cc1CN1CCOCC1 (centres undefined) | 21
CC(C)NC(=O)N(C)C[C@@H]1Oc2c(NS(=O)(=O)c3ccc(F)cc3)cccc2C(=O)N([C@H](C)CO)C[C@@H]1C | -6
CCOC(=O)Cc1c(SC)c2ccccc2n1C | -9
C[C@@H]1CCCCO[C@H](CN(C)S(C)(=O)=O)[C@@H](C)CN([C@H](C)CO)C(=O)c2cc(NS(=O)(=O)c3ccc(Cl)cc3)ccc2O1 | 4
COc1ccc(S(=O)(=O)Nc2ccc3c(c2)C(=O)N([C@H](C)CO)C[C@@H](C)[C@H](CN(C)Cc2ccc(Cl)c(Cl)c2)O3)cc1 | 50
Nc1nc(CSc2nnnn2-c2ccccc2)nc(N2CCCc3ccccc32)n1 | 2
Cc1ccc(S(=O)(=O)N(C)C[C@@H]2Oc3ccc(NC(=O)Cc4cn(C)c5ccccc45)cc3C(=O)N([C@H](C)CO)C[C@@H]2C)cc1 | 20
N#Cc1c(SCC(=O)Nc2ccc(F)cc2Cl)nc2c(c1C(F)(F)F)CCCCC2 | 25
CCOc1ccccc1NC(=O)CSc1nc2ccccc2c(=O)n1-c1cccc(C(F)(F)F)c1 | 20
COc1ccc(NC(=O)N(C)C[C@@H]2Oc3ccc(NS(=O)(=O)c4c(C)noc4C)cc3CC(=O)N([C@H](C)CO)C[C@H]2C)cc1 | 3
CCn1c(SCC(=O)c2cccc([N+](=O)[O-])c2)nnc1-c1ccco1 | 6
C[C@@H]1CN([C@H](C)CO)C(=O)Cc2cc(NC(=O)C3CC3)ccc2O[C@@H]1CN(C)C(=O)Nc1cccc2ccccc12 | 2
COc1ccccc1NC(=O)C1=C(C)Nc2nc(CCCO)nn2C1c1cccnc1 (centres undefined) | -11
Cc1ccc(S(=O)(=O)Nc2ccc3c(c2)CC(=O)N([C@H](C)CO)C[C@@H](C)[C@@H](CN(C)Cc2ccccc2)O3)cc1 | 85*
COc1ccc(S(=O)(=O)N(C)C[C@H]2Oc3ccc(NC(=O)C4CC4)cc3CC(=O)N([C@H](C)CO)C[C@H]2C)cc1 | 23
C[C@@H]1CN([C@@H](C)CO)C(=O)c2cc(NS(=O)(=O)c3cccs3)ccc2O[C@H]1CN(C)Cc1ccc(Cl)c(Cl)c1 | 9
CC(NC(=O)/C=C/C(=O)O)C(=O)NC(C(=O)NC(Cc1c[nH]c2ccccc12)C(=O)O)C(C)c1c[nH]c2ccccc12 (centres undefined) | 6
CCC(C)Cn1c(CCCO)nc2ccccc21 (centres undefined) | 6
N=C(N)SCCc1ccc(OCc2ccc([N+](=O)[O-])cc2)cc1 | 55
COc1ccc(CN(C)C[C@H]2OCCCC[C@@H](C)Oc3ccc(NS(=O)(=O)c4cccs4)cc3C(=O)N([C@H](C)CO)C[C@@H]2C)cc1 | 22
COc1ccc(CN(C)C[C@H]2Oc3ccc(NC(=O)Nc4ccc(C(F)(F)F)cc4)cc3C(=O)N([C@H](C)CO)C[C@@H]2C)cc1 | 104*
CCOc1ccccc1OCC(=O)Nc1ccccc1C(=O)O | 5
COc1ccc(-c2cc(=O)[nH]c(SCC(=O)Nc3ccc(Oc4ccccc4)cc3)n2)cc1 | 13
C[C@@H]1CCCCO[C@@H](CN(C)S(=O)(=O)c2cn(C)cn2)[C@@H](C)CN([C@H](C)CO)C(=O)c2cc(NC(=O)c3ccncc3)ccc2O1 | 2
Cc1noc(C)c1NC(=O)N(C)C[C@H]1Oc2ccc(NS(=O)(=O)c3cn(C)cn3)cc2C(=O)N([C@H](C)CO)C[C@@H]1C | 15
C[C@@H]1CN([C@H](C)CO)C(=O)c2cc(NC(=O)Nc3ccc(C(F)(F)F)cc3)ccc2O[C@@H]1CN(C)Cc1ccc(C(=O)Nc2ccccc2N)cc1 | 102*
CNC[C@H]1Oc2ccc(NC(=O)c3ccncc3)cc2CC(=O)N([C@@H](C)CO)C[C@H]1C | -1
CCOC(=O)c1cnc(N2CCOCC2)nc1N | 13
COc1ccc(NC(=O)Nc2ccc3c(c2)C(=O)N([C@H](C)CO)C[C@@H](C)[C@@H](CN(C)Cc2ccc(Cl)c(Cl)c2)O3)cc1 | 98*
Nc1nc(SCC(=O)Nc2ccccc2C(F)(F)F)[nH]c(=O)c1-c1ccccc1 | 12

Ordered by SMILES length (low to high): some entries from above
SMILES | NOMO-1 viab
C[C@@H]1CN([C@H](C)CO)C(=O)c2cc(N(C)C)ccc2O[C@@H]1CN(C)C(=O)Nc1ccc(F)cc1 | 13
CC(C)NC(=O)Nc1ccc2c(c1)C(=O)N([C@H](C)CO)C[C@H](C)[C@@H](CN(C)Cc1ccc(C(F)(F)F)cc1)OCCCC[C@@H](C)O2 | 31
C[C@@H]1CCCCO[C@H](CN(C)C(=O)Cc2ccccc2)[C@@H](C)CN([C@H](C)CO)C(=O)c2cc(NS(=O)(=O)c3ccc(F)cc3)ccc2O1 | 12

From PubChem
